High-throughput results as filed in PubChem.
CHT PAM – human CHT allosteric activation; 310,000 tested, 0.49% active; Q9GZV3; B-score at 10 µM; AID 488977; CHT-expressing cells, membrane potential dye, choline EC20; hits give high values; LV-AA mutant CHT in HEK293 cells;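 active = initial fluorescence not abnormally high and integrated response B-score, plate-corrected, over 3 SD above library mean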
Target sequence (Q9GZV3 whole entry, looked up): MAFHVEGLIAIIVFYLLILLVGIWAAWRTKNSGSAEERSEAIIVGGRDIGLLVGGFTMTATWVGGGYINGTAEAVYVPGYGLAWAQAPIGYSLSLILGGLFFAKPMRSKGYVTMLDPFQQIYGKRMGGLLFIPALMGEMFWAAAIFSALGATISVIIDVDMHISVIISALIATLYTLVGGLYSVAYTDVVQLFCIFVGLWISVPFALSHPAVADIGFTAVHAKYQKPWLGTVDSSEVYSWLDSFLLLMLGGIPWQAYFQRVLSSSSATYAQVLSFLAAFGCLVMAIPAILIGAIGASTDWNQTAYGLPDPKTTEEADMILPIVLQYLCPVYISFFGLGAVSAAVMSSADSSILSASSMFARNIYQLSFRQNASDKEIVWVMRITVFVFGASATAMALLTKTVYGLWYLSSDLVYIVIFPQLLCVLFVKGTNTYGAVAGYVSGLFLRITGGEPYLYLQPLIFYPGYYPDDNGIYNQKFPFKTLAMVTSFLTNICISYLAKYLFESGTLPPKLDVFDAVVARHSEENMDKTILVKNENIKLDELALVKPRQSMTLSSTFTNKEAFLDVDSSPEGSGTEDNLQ
Calls only; i = inactive. These rows are one share of the data; most or all hits stand in other tables.

SMILES	CHT PAM
O=C(Nc1ccc(N2CCOCC2)cc1)C1CC(=O)N(c2ccc(F)cc2)C1 (centres undefined)	i
Cc1ccc2nc(NC(=O)c3cccc(-c4cc5ccccc5oc4=O)c3)sc2c1	i
CCCCn1cnc2c(cnn2-c2ccc(Cl)cc2)c1=O	i
N=C1C(=O)OCC1c1ccccc1NC(=O)Nc1ccccc1 (centres undefined)	i
CC1=C(C(=O)Nc2ccccc2)C(c2ccc(C)o2)n2ncnc2N1 (centres undefined)	i
COc1ccc2[nH]cc(C(=O)CN3CCC(C)CC3)c2c1	i
CC(=O)c1c(C)[nH]c(C(=O)Nc2ccc(Cl)cc2)c1C	i
CC1(C)Cc2c(cnn2-c2ccccc2)C(=O)/C1=N\NC(=O)c1ccccc1O	i
Cc1ccc(S(=O)(=O)N2CCN(C)CC2)cc1	i
COc1cc(NC(=O)CSc2nc3ncnc(N)c3[nH]2)c(C(=O)O)cc1OC	i
CCOC(=O)C1=C(C)N(CCCC(=O)O)C(=O)NC1c1ccc2ccccc2c1 (centres undefined)	i
O=C(CCN1C(=O)C2C3C=CC(C3)C2C1=O)NCC1CCCO1 (centres undefined)	i
CCCCn1c(CCc2ccccc2)nc2cc3[nH]c(=O)c(C(C)C)nc3cc21	i
O=C(C1CC2C=CC1C2)N1CCN(c2ccccc2)CC1 (centres undefined)	i
Cc1ccc2cc(CN(CCN3CCCC3)C(=O)Nc3ccc(F)cc3)c(=O)[nH]c2c1C	i
CN(Cc1cc2cc(F)ccc2[nH]1)Cc1nc(-c2cnccn2)no1	i
CN(Cc1ccccc1)c1ncnc(N)c1[N+](=O)[O-]	i
Cc1ccc(-c2nc(CN3CCCCC3)cc(CN3CCCCC3)c2O)cc1	i
OCC1CCCC(n2cnc3c(=S)nc[nH]c32)O1 (centres undefined)	i
Cc1ccc2nsnc2c1S(=O)(=O)N(CCO)Cc1cc2cc3c(cc2[nH]c1=O)OCCO3	i
Cc1ccc(/C=C/c2ccc3cccc(O)c3n2)s1	i
CC(C)Nc1nnc(SCC(=O)/C=C2\N(C)c3ccccc3C2(C)C)s1	i
CCOC(=O)C1CCN(S(=O)(=O)c2c(C)n(C)c(=O)n(C)c2=O)CC1	i
N#Cc1nc(-c2cccs2)oc1NCc1ccc2c(c1)OCO2	i
CC(=O)Nc1ccc(NC(=O)C/C(C)=N/NC(=O)c2cccc3ccccc23)cc1	i
Cc1cccc(OCC(=O)Nc2ccccc2F)c1	i
COc1cccc2sc(N3CCN(C(=O)c4ccco4)CC3)nc12	i
CCn1ccnc1CN(C)Cc1nc(CCC(C)C)no1	i
CSCCC(NC(=O)c1ccc(Cl)cc1Cl)C(=O)OC1CCCCC1=O (centres undefined)	i
O=C(Oc1ccc2c(=O)c(Cl)coc2c1)c1ccncc1	i

No new results follow: entries from further up.
SMILES	CHT PAM
CN(Cc1ccccc1)c1ncnc(N)c1[N+](=O)[O-]	i
Cc1ccc(-c2nc(CN3CCCCC3)cc(CN3CCCCC3)c2O)cc1	i

Carrying on.
SMILES	CHT PAM
NC(=O)N/N=C/C=C/c1ccccc1	i
CCC1CCCCN1C(=O)CSc1nnc(-c2ccc(Cl)s2)o1 (centres undefined)	i
Cc1ccc(C)c(Cn2c(=O)n(-c3ccc(CC(=O)NCc4ccco4)cc3)c(=O)c3sccc32)c1	i
Cc1ccc(-c2nc(C#N)c(NCCN3CCCCC3)o2)cc1	i
CCCSc1ccc([C@H]2N[C@@](CC(C)C)(C(=O)OC)[C@H]3C(=O)N(C)C(=O)[C@@H]23)cc1	i
Cc1nn(-c2cc(Cl)ccc2N)c(=O)c2ccccc12	i
Cc1cc(C(=O)N2CCCC(Nc3ccccc3)C2)c2ccc(F)cc2n1 (centres undefined)	i
Cn1cc(CCC(=O)N2CCCC(C(=O)c3ccc(C(C)(C)C)cc3)C2)cn1 (centres undefined)	i
N#Cc1c(NC(=O)c2cnn3cccnc23)sc2c1CCCC2	i
N#Cc1nc(COc2ccccc2)oc1N1CCOCC1	i
CN(C)c1cccc(C(=O)OCC(=O)NCc2ccco2)c1	i
COc1ccc(NC(=S)NCc2cccs2)cc1OC	i
O=C(CCCN1C(=O)/C(=C/c2cccc(Br)c2)SC1=S)N1CCOCC1	i
Cc1ccccc1NS(=O)(=O)c1ccc(C(=O)NCC2CCCO2)cc1 (centres undefined)	i
CCOCCCNC(=O)c1cc(Cl)c(NC(=O)C2=C(C)OCCS2)cc1OC	i
O=C(COc1ccccc1Cl)Nc1ccccc1C(=O)NC1CC1	i
O=C(Cc1cccc2ccccc12)Nc1ccc(Br)cc1C(=O)O	i
COc1cc(/C=C2\NC(=S)N(C)C2=O)ccc1OCc1ccccc1F	i
O=C(Nc1ccc(F)cc1)N(CCCN1CCOCC1)Cc1cc2cc3c(cc2[nH]c1=O)OCCO3	i
O=C(Nc1ccn(-c2ccccc2)n1)c1ccc(Cl)cc1	i
Cn1nc([N+](=O)[O-])nc1Oc1ccccc1C(=O)N1CCOCC1	i
COc1ccc(Cc2nc3ccc(C(=O)N(C)Cc4nccs4)cc3o2)cc1OC	i
CSc1nnc(-c2ccc(NC(=O)CCc3ccccc3)cc2)n1C	i
O=C(CN1CCN(S(=O)(=O)N2CCCCC2)CC1)Nc1cc(Cl)ccc1Cl	i
Cc1cc(C)n(CC(=O)NNC(=O)CCNC(=O)c2ccccc2Cl)n1	i
Cc1cc(C)c(S(=O)(=O)N2CCCCC2CCNC(=O)C(=O)NCc2cccnc2)c(C)c1 (centres undefined)	i
Nc1nc(Nc2ccccc2F)nc(N2CCCC2)c1[N+](=O)[O-]	i
CCNC(=S)N(CCN(CC)CC)Cc1cc2cc3c(cc2[nH]c1=O)OCO3	i
CCOC(=O)C1CCCN(c2c(N3CCN(c4cccc(Cl)c4)CC3)c(=O)c2=O)C1 (centres undefined)	i
CCCCc1nnc(NC(=O)CS(=O)(=O)Cc2ccccc2)s1	i
O=C(NCC(c1cccnc1)N1CCN(c2ccc(F)cc2)CC1)C1CCCCC1 (centres undefined)	i
COc1ccc(C(=O)NNC(=O)c2ccccc2[N+](=O)[O-])cc1Br	i
Cc1nn(Cc2ccc(Cl)c(Cl)c2)c(C)c1NC(=O)c1cc(-c2ccco2)on1	i
CCOc1ncccc1C(=O)OCc1ccc(C(=O)OC)cc1	i
N#Cc1sc2nc3c(c(-c4cccnc4)c2c1N)CCC3	i
CCN(Cc1ccncc1)C(=S)NCc1ccccc1	i
[O-]/C(=C(\C(=S)Nc1ccc(SC(F)F)cc1)[n+]1ccccc1)c1ccc(Cl)cc1Cl	i
CC1CCCC(C)N1S(=O)(=O)c1ccc(S(=O)(=O)NCc2ccccc2)cc1 (centres undefined)	i
CC(C)(C)OC(=O)NCCC(=O)Oc1ccc2ccc(=O)oc2c1	i
CC(Sc1nc(-c2ccccc2)cc(C(F)(F)F)n1)C(=O)Nc1sc2c(c1C(N)=O)CCC2 (centres undefined)	i
CC(=O)c1cccc(NC(=O)CC2S/C(=N/N=C/c3ccccc3)NC2=O)c1 (centres undefined)	i
CCCCc1nc(Cl)c(C#N)c2c1CSC(C)(C)C2	i
O=S1(=O)c2ccccc2C(CCO)N1Cc1ccccc1 (centres undefined)	i
CCc1ccc(NC(=O)Nc2c(C)n(C)n(-c3ccccc3)c2=O)cc1	i
CC(C)(C)NCc1cc(Cl)ccc1OCc1ccccc1F	i

Part of the list above, field by field.
mol: O=C(NCC(c1cccnc1)N1CCN(c2ccc(F)cc2)CC1)C1CCCCC1 (centres undefined)
  CHT PAM: i
mol: COc1ccc(C(=O)NNC(=O)c2ccccc2[N+](=O)[O-])cc1Br
  CHT PAM: i
mol: Cc1nn(Cc2ccc(Cl)c(Cl)c2)c(C)c1NC(=O)c1cc(-c2ccco2)on1
  CHT PAM: i
mol: CCOc1ncccc1C(=O)OCc1ccc(C(=O)OC)cc1
  CHT PAM: i

Random excerpt: six entries already listed
SMILES	CHT PAM
CCc1ccc(NC(=O)Nc2c(C)n(C)n(-c3ccccc3)c2=O)cc1	i
CC1CCCC(C)N1S(=O)(=O)c1ccc(S(=O)(=O)NCc2ccccc2)cc1 (centres undefined)	i
CCOc1ncccc1C(=O)OCc1ccc(C(=O)OC)cc1	i
CC(C)(C)NCc1cc(Cl)ccc1OCc1ccccc1F	i
O=C(NCC(c1cccnc1)N1CCN(c2ccc(F)cc2)CC1)C1CCCCC1 (centres undefined)	i
CCN(Cc1ccncc1)C(=S)NCc1ccccc1	i

The list goes on.
SMILES	CHT PAM
O=C(CSc1nncs1)NC(=O)NCc1ccccc1	i
CCOc1ccc2[nH]c(SCC(=O)OC)c([N+](=O)[O-])c2c1	i
CCCc1nc2nc(C)c(NS(=O)(=O)c3ccc(F)cc3)c(=O)n2[nH]1	i
COc1ccc(NC(=O)Cc2ccccc2)cc1	i
CCOc1ccc(NC(=O)N2CCC(C(=O)c3ccc(F)cc3)CC2)cc1	i
COc1ccc(-n2c(C)nc3cc(C(=O)NCc4ccc5c(c4)OCO5)ccc32)cc1	i
CCNC(=O)COC(=O)CCNC(=O)c1cccc(C)c1	i
O=C(NCc1ccccc1)/C(NC(=O)c1ccccc1)=C(/Sc1ccccn1)c1ccccc1	i
CCNC(=S)N/N=C(\C)c1ccc(N2CCOCC2)cc1	i
COc1ccc2c(c1OC)C(=O)OC2CC(=O)c1ccc(O)c(O)c1 (centres undefined)	i
O=C(c1ccc(CS(=O)Cc2ccccc2Cl)o1)N1CCN(c2cccc(Cl)c2)CC1 (centres undefined)	i
N#C/C(=C\c1ccco1)C(=O)Nn1cnnc1	i
CC(C(=O)NN)c1ccc([N+](=O)[O-])cc1 (centres undefined)	i
CC(C(=O)Nc1ccc(Cl)cc1)N(C)Cc1cccs1 (centres undefined)	i
CN(C)S(=O)(=O)c1cccc(NC(=O)CN2C(=O)NC(Cc3c[nH]c4ccccc34)C2=O)c1 (centres undefined)	i
Nc1c(Cl)ncnc1NCc1cccnc1	i
Cc1cc(OCCn2ccnc2)ccc1C(C)C	i
CC(C)CCNC(=O)c1ccc(OC2CCN(S(=O)(=O)N(C)C)CC2)cc1	i
COc1cccc(CC(=O)NNC(=O)c2c(-c3ccccc3)noc2C)c1	i
CCN(c1ccccc1C)S(=O)(=O)c1nnc(NC(=O)c2ccco2)s1	i
O=C(c1cccc(S(=O)(=O)N2CCc3ccccc32)c1)N1CCN(c2ccccn2)CC1	i
COc1ccccc1NC(=O)CCc1nnc2ccc(N3CCC4(CC3)OCCO4)nn12	i
CCC(Sc1nnc(C)c(=O)[nH]1)C(=O)Nc1cccc2ccccc12 (centres undefined)	i
COc1cccc(CNS(=O)(=O)c2cc3c4c(c2)CCC(=O)N4CCC3)c1	i
COc1cc(NC(=O)CSc2nc3ccccc3c(=O)n2C)ccc1NC(=O)c1ccco1	i
COC(=O)c1ccccc1NC(=O)C(=O)NCC1CCCO1 (centres undefined)	i
Cc1ccc(C)c(Nc2ncnc3nc[nH]c23)c1	i
Cc1cccc(NS(=O)(=O)c2ccc(OCC(=O)N3CCCC3)cc2)c1	i
CN(Cc1ccccc1)C(=O)c1ccccc1C(=O)O	i
CCc1cccc(NS(=O)(=O)c2c(C)n[nH]c2C)c1	i
CCC(=O)Nc1ccc(Cl)c(NC(=S)NC(C)=O)c1	i
CCc1c(C)nc2ncnn2c1N1CCC(C(=O)NCc2ccc3c(c2)OCO3)CC1	i
CC1CCC(=NNC(=O)Cc2cccn2C)CC1 (centres undefined)	i
COc1ccc(NC(=O)CN(C)C(=O)C(C)Sc2ccccc2)cc1 (centres undefined)	i
CCOc1ccccc1-n1nnnc1SCc1nc2ccccc2s1	i
COc1cccc(CC(NC(C)=O)C(=O)NC2CCN(c3nc(C)cc(C)c3C#N)CC2)c1 (centres undefined)	i
O=C(CN1CCCc2ccccc21)NCc1ccc2c(c1)OCO2	i
O=C(Nc1ccon1)Nc1ccc(Cl)cc1Cl	i
O=C(Oc1ccc2ccccc2c1Cl)N1CCCC1	i
COc1ccc(C(=O)NCC(=O)OCC(=O)NC2CCCC2)cc1	i
O=C(COc1ccccc1Cl)NCCNC(=O)c1ccccn1	i
O=C(OC(C(=O)NCc1ccco1)C(OC(=O)c1ccccc1)C(=O)NCc1ccco1)c1ccccc1 (centres undefined)	i
COc1ccc(/C=C2\CCc3ccccc3C2=O)cc1Cn1cccn1	i
Cc1cc(C)c(C)c(S(=O)(=O)NCc2ccc(C(=O)N3CCCCC3)cc2)c1C	i
CC(=O)Nc1nc2ccccc2n1Cc1ccccc1C	i

Next part (3 carried over from the part before).
SMILES	CHT PAM
COc1ccc(/C=C2\CCc3ccccc3C2=O)cc1Cn1cccn1	i
Cc1cc(C)c(C)c(S(=O)(=O)NCc2ccc(C(=O)N3CCCCC3)cc2)c1C	i
CC(=O)Nc1nc2ccccc2n1Cc1ccccc1C	i
Cc1ccc(C)c(NC(=S)NC2CC3CCCC(C2)N3CC(C)C)c1 (centres undefined)	i
Cn1c(C(=O)O)cc2cc(F)ccc21	i
O=C(COC(=O)c1ccc2[nH]c3c(c2c1)CCCC3)Nc1ccccc1Cl	i
CN(Cc1ccccc1)C(=O)c1ccc2c(c1)OCCO2	i
CC(C)NC(=O)NC(=O)COc1c(F)c(F)cc(F)c1F	i
CCCCc1nnc(NC(=O)CN(C)S(=O)(=O)c2ccc(C)cc2)s1	i
Cc1ccc(N2C(=O)[C@@H]3[C@H](C2=O)[C@H]2C=CC=NN2[C@@H]3C(=O)Nc2ccc(Cl)cc2)cc1	i
Cc1ccccc1NC(=O)c1cc(=O)c2ccccc2o1	i
COc1ccc(C)cc1NC(=O)CSc1nnc2ccc(-c3cccnc3)nn12	i
O=C(CCCN1C(=O)c2ccccc2C1=O)Nc1nc2ccccc2[nH]1	i
O=C1CCCc2oc3c(cc(NS(=O)(=O)c4ccc5c6c(cccc46)C(=O)N5)c4ccccc43)c21	i
COc1ccc(/C=N/n2c(-c3ccc(C)cc3)n[nH]c2=S)cc1OC	i
NC(=S)NC(=O)c1ccccc1	i
Cc1cc(S(=O)(=O)N2CCCC2)ccc1OCC(=O)Nc1ccccc1	i
Cc1noc(C)c1COc1ccc(C(=O)OCC(=O)NC23CC4CC(CC(C4)C2)C3)cc1	i
CC1CN(c2nnc(NC(=O)c3ccccc3)s2)CC(C)O1 (centres undefined)	i
Cc1cccc(C)c1NC(=O)c1cc(-c2ccccn2)nc2ccccc12	i
CCCCCCN=CC1=C(O)CC(C)(C)CC1=O	i
